# Assay outcomes: PubChem BioAssay, several laboratories
# RecA splice inh = Mtb RecA intein splicing inhibitors, primary screen, biochemical, fluorescence, HTS; cell-free RecA intein splicing; inhibition, %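 (about 9 µM by stock and volumes)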; actives 0.75% (n = 290,000); AID 2221, 2009; in the data active means inhibition above about 30%; inconclusive means no clear call, values can overlap the other calls;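 further: 0% = vehicle wells and 100% = reference inhibitor control wells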
# Target sequence (P9WHJ3 whole entry, looked up, canonical isoform): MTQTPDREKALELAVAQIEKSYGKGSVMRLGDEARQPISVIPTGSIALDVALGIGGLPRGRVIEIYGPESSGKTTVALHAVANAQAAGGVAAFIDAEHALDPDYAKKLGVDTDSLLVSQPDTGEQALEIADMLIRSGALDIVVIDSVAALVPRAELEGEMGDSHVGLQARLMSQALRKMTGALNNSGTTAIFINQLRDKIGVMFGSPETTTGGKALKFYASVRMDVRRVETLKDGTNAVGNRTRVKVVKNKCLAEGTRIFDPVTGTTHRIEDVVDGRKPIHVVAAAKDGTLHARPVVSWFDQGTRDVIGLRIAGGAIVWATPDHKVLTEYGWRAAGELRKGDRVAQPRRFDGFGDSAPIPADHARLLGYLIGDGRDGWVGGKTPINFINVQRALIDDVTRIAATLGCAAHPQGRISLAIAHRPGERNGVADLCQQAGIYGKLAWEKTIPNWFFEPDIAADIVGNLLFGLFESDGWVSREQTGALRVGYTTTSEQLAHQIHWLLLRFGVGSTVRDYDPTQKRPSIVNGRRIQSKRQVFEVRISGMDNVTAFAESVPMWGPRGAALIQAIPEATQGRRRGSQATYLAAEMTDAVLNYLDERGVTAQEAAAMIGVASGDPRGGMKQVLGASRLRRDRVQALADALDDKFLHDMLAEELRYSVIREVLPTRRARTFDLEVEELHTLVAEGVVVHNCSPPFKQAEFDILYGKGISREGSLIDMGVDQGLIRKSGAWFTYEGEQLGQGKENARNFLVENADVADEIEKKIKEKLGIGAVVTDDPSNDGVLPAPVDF
# YopH PTP inh = YopH tyrosine phosphatase inhibitors, primary screen, biochemical, fluorescence Ex485/Em525; actives 0.16% (n = 140,000); inhibition, %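 (about 10 µM by stock and volumes)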; YopH tyrosine phosphatase [Yersinia enterocolitica];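 active means inhibition of 50% or more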;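 further: controls were vehicle for no effect and minimum signal wells for full effect; inactives centre near -20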
# Mtb growth = M. tuberculosis H37Rv growth inhibitors, H37Rv strain (AID 1626). M. tuberculosis H37Rv growth inhibition; higher % means a stronger effect. inhibition, % at 10 µM, or IC50 in µM where a hit was titrated. actives 0.95% (n = 220,000);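 active means confirmed in a dose series; inconclusive means inhibition above 80% but not taken into the dose series; inactive means below 80% or under 30% at every dose of the series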;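 further: bacteria incubated seven days before Alamar blue readout; 0% = bacteria only wells and 100% = bacteria with antibiotic wells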
# Arbovirus inh = antivirals against arbovirus infection, primary screen, cell-based, full library, 10K replicate subset; arbovirus infection cell-based antiviral screen; inhibition, % at 10 µM; actives 0.37% (n = 200,000);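 active means inhibition from about 30%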;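 further: bluetongue infection of BSR cells; cell survival read as ATP light after 72 h; 0% = infected wells without compound and 100% = uninfected wells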
# Mtb betalactam = beta-lactam sensitization of Mtb H37Rv, H37Rv | M. tuberculosis H37Rv growth with meropenem, percent inhibition; hits of this screen are not shown here | actives 0.27% (n = 330,000) | inhibition, % at 25 µM;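 active means about 74% or more and at least 40 points above the plate without the antibiotic, then above 30% in a dose series; inconclusive means first-round hits that could not be retested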;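 further: growth measured after seven days incubation then overnight dye step; 0% = bacteria only wells and 100% = bacteria with antibiotic; twin plates without the antibiotic show which effects depend on it; some results filed as inactive read as strong as hits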
# Arbovirus inh repeat = further read-out of Arbovirus inh, marked with its call; inhibition, %; measured here: 10K subset replicate screen; many hits read low in the repeat;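 first of two repeat runs on a subset; 0% = infected and 100% = uninfected wells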
# * = called active by the depositor; ? = inconclusive; . = not tested or not shown. This is a subset (hit frequency here may not be typical).
SMILES,RecA splice inh,YopH PTP inh,Mtb growth,Arbovirus inh,Mtb betalactam,others
O=C(COc1ccc(C(=O)c2ccccc2)cc1)NCC(=O)Nc1ccccc1Br,1.3,-15,13%,-21,8,
CCOc1ccc(-n2c(=O)c3sccc3n(CC(=O)NCCc3ccc(OC)c(OC)c3)c2=O)cc1,-3.0,.,-10%,5,5,
COc1ccc(N2CCN(C(=O)c3ccc4c(c3)NC(=O)C(CSCc3ccc(C)cc3)N4)CC2)cc1 (centres undefined),4.4,.,.,.,8,
N#Cc1ccc(S(=O)(=O)N2CCN(c3ncccn3)CC2)cc1,-2.9,.,-4%,.,-2,
CCOc1ccc(N(CC(=O)N2CCN(c3ccccc3)CC2)S(=O)(=O)c2c(C)noc2C)cc1,0.4,-41,-10%,19,2,Arbovirus inh repeat=0
CCC(=O)OCCNc1cc(Sc2nccn2C)c2nonc2c1[N+](=O)[O-],87*,-23,20µM*,-48,100,
C/C=C(/C)C(=O)OC1Cc2c(ccc3ccc(=O)oc23)OC1(C)C (centres undefined),5.1,.,-2%,.,-5,
O=C(N/N=C/c1c(O)n(CCC2=CCCCC2)c(=S)[nH]c1=O)c1ccccc1,-3.7,-33,-1%,-14,38,
COc1ccc(NC(=O)CN2C(=O)NC(c3ccccc3)(c3ccccc3)C2=O)cc1OC,0.2,.,.,.,10,
Cc1cc2n(c(=O)c1C#N)CCCN2c1ccccc1,1.7,37,-11%,6,5,
CCOC(=O)C1C(c2cccc(F)c2)NC(=S)NC1(O)C(F)(F)F (centres undefined),-4.8,-4,-7%,8,-9,
CCCc1ccc2oc(C(=O)NCCCN3CCOCC3)c(C)c2c1,1.1,.,.,.,-4,
CCN(CC)CCNc1ccc(CO)c2sc3ccccc3c(=O)c12,-2.5,-16,-1%,-44,6,
O=C(O)c1ccccc1CSc1nc2ccccc2[nH]1,2.8,.,.,.,7,
COc1cc(C)c(CN2CCC(Cc3ccccc3)CC2)cc1C,1.8,.,.,.,-6,
Cc1ccc(-c2nnc(SCC(=O)O)n2N)cc1,1.3,-46,-9%,-4,-9,
COCCn1c(COc2ccc(C)cc2)nc2ccccc21,-0.3,-36,-1%,-10,13,
N=C1/C(=C/c2ccc(-c3cccc(C(=O)O)c3)o2)C(=O)N=C2SC(CC(=O)N3CCOCC3)=NN12,-3.7,.,.,.,3,
CCOC(=O)c1c(NC(=O)CC2SC(N)=NC2=O)sc2c1CCCC2 (centres undefined),4.3,-25,9%,-13,0,
CCOC(=O)Cn1cc(-c2ccccc2)nn1,-0.2,-32,-9%,5,-6,
Cc1ccccc1C(=O)Nc1cccc(C(=O)N/N=C/c2ccccn2)c1,0.9,.,.,.,-5,
Cc1cccc(-c2noc(-c3cc4ccccc4oc3=O)n2)c1,1.7,10,1.3µM*,10,3,
C=CCn1c(SCC(=O)Nc2sccc2C(N)=O)nc2ccc(Cl)cc2c1=O,-0.9,-6,8%,-6,-9,
CCN(CC)C(=O)COC(=O)c1cc(-c2ccco2)nc2ccccc12,-26,.,-8%,11,.,
O=C(/C=C/c1ccccc1)N/C(=C/c1ccccc1)C(=O)N1CCOCC1,0.8,-23,14%,7,-1,

# A draw from above in order of SMILES length, lowest first.
SMILES,RecA splice inh,YopH PTP inh,Mtb growth,Arbovirus inh,Mtb betalactam,others
COc1cc(C)c(CN2CCC(Cc3ccccc3)CC2)cc1C,1.8,.,.,.,-6,
CCN(CC)CCNc1ccc(CO)c2sc3ccccc3c(=O)c12,-2.5,-16,-1%,-44,6,
CCOC(=O)c1c(NC(=O)CC2SC(N)=NC2=O)sc2c1CCCC2 (centres undefined),4.3,-25,9%,-13,0,

# (further entries)
SMILES,RecA splice inh,YopH PTP inh,Mtb growth,Arbovirus inh,Mtb betalactam,others
CCOC(=O)C1CCN(C(=O)CCS(=O)(=O)c2ccc3c(c2)CCN3C(=O)CC)CC1,-1.2,.,-2%,4,-6,
CCC(=O)Nc1cccc(C2=NOC3(C2)C[C@@H](C(N)=O)N(C(=O)c2cc([N+](=O)[O-])cc([N+](=O)[O-])c2C)C3)c1 (some centres undefined),-6.3,.,-2%,.,-16,
COc1ccc(NC(=O)CSc2nnc(CNC(=O)c3cccs3)o2)c(OC)c1,-1.6,.,.,.,6,
COC(=O)COc1nsnc1N1CCOCC1,-2.3,-35,-8%,7,-5,
COc1ccccc1NS(=O)(=O)c1cccc(C(=O)NCc2ccccn2)c1,-9.4,.,.,.,-21,
Cc1cc(C)cc(N(CC(=O)NC2CCCC2)C(=O)CCC(=O)Nc2nc(C)cs2)c1,0.9,.,.,.,4,
c1csc(-c2cn3c(n2)SCC3)c1,2.1,-37,-9%,0,-10,
COc1ccc(CNC(=O)c2ccc(N3CCOCC3)c([N+](=O)[O-])c2)cc1,-1.0,.,1%,-1,3,
CCCCOc1ccc(S(=O)(=O)NNC(=O)c2cc3ccccc3o2)cc1,8.0,-19,2%,6,-3,
Cc1ccc(C(=O)N2CCC3(CC2)Oc2ccc(Cl)cc2C(=O)C32CC(c3cccnc3)=NO2)s1 (centres undefined),7.6,.,33%,.,98,
O=C(CCCC(=O)N(c1ccc2c(c1)OCCO2)C(C(=O)NC1CCCCC1)c1ccc(Cl)cc1)Nc1ccccn1 (centres undefined),0.3,-21,15%,-4,-2,
CCCCCCOC(=O)c1ccc(NC(=O)c2cc(OC)c(OC)c(OC)c2Br)cc1,2.8,-8,5.3µM*,2,99,
COc1ccc(Br)cc1CNc1ccccc1,4.8,.,.,.,-4,
Cc1nc2ccccc2c(=O)n1-c1cc(F)ccc1F,.,.,5%,22,0,
Cc1nc2ccccc2c(=O)n1NC(=O)c1cccnc1Cl,1.3,.,-5%,-4,-6,
COC(=O)C1=C(c2cccc(OC)c2OC)C[C@@H]2CC[C@H]1N2C(=O)NCCO,-1.6,.,-5%,.,-1,
COc1cc(OC)c(C2NC(=O)CCC2[N+](=O)[O-])cc1OC (centres undefined),-0.9,.,.,.,1,
CSc1nc(N)n2nc(C(C)(C)C)cc2n1,0.6,.,-7%,.,-2,
O=C(Nc1nnc(SCc2ccc(F)cc2)s1)c1ccco1,-1.0,-37,-9%,3,-7,
COc1ccc(N2C(=O)C(C)(C)C2c2c(O)ccc3ccccc23)cc1 (centres undefined),11,.,.,.,11,
O=C(N/N=C/c1ccncc1)c1cc2ccccc2cc1O,-99,.,.,.,3,
COc1ccc(/C(N)=N/OC(=O)c2cccc([N+](=O)[O-])c2C)cc1OC,-3.9,1,-6%,-19,-16,
COc1cc2oc3ccccc3c2cc1N(CC(=O)N(C)C)S(=O)(=O)c1ccccc1,-63,-6,-1%,-7,0,
COc1ccc([N+](=O)[O-])cc1NC(=O)C(C)OC(=O)c1cccnc1 (centres undefined),-0.8,.,1%,16,-1,
CC(C)CCNC(=O)c1cc(S(=O)(=O)N2CCc3ccccc32)cn1C,-2.7,.,.,.,-3,

# Reprinted from the part before: five compounds, then new ones.
SMILES,RecA splice inh,YopH PTP inh,Mtb growth,Arbovirus inh,Mtb betalactam,others
O=C(N/N=C/c1ccncc1)c1cc2ccccc2cc1O,-99,.,.,.,3,
COc1ccc(/C(N)=N/OC(=O)c2cccc([N+](=O)[O-])c2C)cc1OC,-3.9,1,-6%,-19,-16,
COc1cc2oc3ccccc3c2cc1N(CC(=O)N(C)C)S(=O)(=O)c1ccccc1,-63,-6,-1%,-7,0,
COc1ccc([N+](=O)[O-])cc1NC(=O)C(C)OC(=O)c1cccnc1 (centres undefined),-0.8,.,1%,16,-1,
CC(C)CCNC(=O)c1cc(S(=O)(=O)N2CCc3ccccc32)cn1C,-2.7,.,.,.,-3,
CCOC(=O)c1c(C)n(C)c2ccc(OC(=O)c3ccc([N+](=O)[O-])cc3)cc12,0.6,-22,78%,18,51,
COCCCNC(=O)c1cc(OC)c(OC)c(OC)c1,5.9,-2,-1%,7,-8,
C=CCN1C(=O)NC(=O)/C(=C\c2ccc(-c3ccccc3[N+](=O)[O-])o2)C1=O,0.1,.,-4%,-7,-1,
CCCCn1nc2cc(C(=O)NCc3ccc(OC)cc3)ccc2c1OCC,0.1,-1,2%,1,55,
Cc1oc2nc(SCC(=O)Nc3ccc(S(N)(=O)=O)cc3)nc(NC(=O)c3ccccc3)c2c1C,8.3,-33,-5%,0,-2,
COc1cccc(CCNS(=O)(=O)CCNC(=O)c2cccc(OC)c2)c1,-3.5,.,.,.,-5,
CC(C)=CCC/C(C)=C/C=N/NC(=O)c1ccccc1[N+](=O)[O-],0.1,-19,-6%,-2,.,
COc1ccc2c(c1)CCc1c-2n[nH]c1C(=O)NCCC(C)C,1.0,.,.,.,80,
Cn1c(=O)[nH]c(=O)c2c1nc(N1CCN(Cc3ccccc3)CC1)n2CCSc1ncccn1,0.4,1,2%,-7,-8,
CC1CCCN(c2ccc([N+](=O)[O-])cc2C(=O)c2ccccc2)C1 (centres undefined),15,-27,4%,-19,3,
Cc1cccn2c(=O)c(/C=C(\C#N)S(=O)(=O)c3ccc(Cl)cc3)c(N3CCC(C(N)=O)CC3)nc12,-0.7,-28,-6%,-6,6,
Cc1c(C)c2cc(Cl)c(O)c(CN3CCCC(C)C3)c2oc1=O (centres undefined),-146,-49,-2%,5,9,
Cc1occc1C(=O)NCCc1cccc(Cl)c1,1.7,-13,9%,-2,-7,
CSCc1cc(N(C)c2ccccc2)nc(-c2ccccc2)n1,5.5,.,.,.,7,
CCOc1cc(N2CCOCC2)c(OCC)cc1NC(=O)Cc1ccccc1OC,2.3,-30,6%,-2,65,
C=CCN(CC=C)S(=O)(=O)c1ccc(NC(=S)NC(=O)/C=C/c2ccc(C)cc2)cc1,-1.8,-20,16%,5,-2,
Cc1ccc(NC(=O)C2CCCC2)c(Br)c1,0.6,.,.,.,-3,
Cc1nn(-c2cc(C(F)(F)F)ccc2Cl)c2nc(C(Cl)(Cl)Cl)[nH]c(=O)c12,3.9,.,-3%,.,-6,
CCCn1c(SCC(=O)NC(C)c2ccccc2)n[nH]c1=O (centres undefined),-0.7,.,3%,4,7,
Cn1nccc1C(=O)N1CCCC(Nc2ccc(F)cc2)C1 (centres undefined),-4.9,.,.,.,4,
O=C(COc1ccc(Cl)cc1)Nc1nc(-c2cccs2)cs1,2.5,15,7%,18,-4,
CCCCn1c(-c2cccs2)nc2oc3ccccc3c(=O)c2c1=O,0.1,.,2%,.,0,
Cc1ccccc1NC(=O)CSc1nnc(-c2ccco2)n1N,2.2,.,.,.,-5,
Cc1nn(Cc2cccc(C(=O)Nc3ccn(Cc4ccccc4)n3)c2)c(C)c1[N+](=O)[O-],-0.6,-15,2%,-6,0,
CCC(C)N1CCN(C(=O)C2CCN(S(=O)(=O)c3c(C)noc3/C=C/c3ccco3)CC2)CC1 (centres undefined),2.0,.,.,.,5,

# The results go on:
SMILES,RecA splice inh,YopH PTP inh,Mtb growth,Arbovirus inh,Mtb betalactam,others
COc1ccc(C2C(=O)c3ccccc3C2=O)cc1OC,-3.1,.,4%,3,-3,
CCC(=O)NC(=S)Nc1ccc(NC(=O)c2ccc([N+](=O)[O-])cc2Cl)cc1,-0.8,-30,46%,-10,90,
CCOCCCNC(=O)CN1CCN(Cc2ccc(Cl)cc2)C1=O,-0.4,.,.,.,8,
Cc1nc(NC(=O)CCCC(=O)Nc2nc(C)c(C)s2)sc1C,-0.6,-34,-10%,4,-5,
CCOC(=O)CC1OC(=O)c2cc3c(cc21)C(=O)OC3CC(=O)OCC (centres undefined),5.5,.,-10%,.,-11,
COc1ccc(NS(=O)(=O)c2ccc(NC(=O)c3ccc(Br)cc3)cc2)nn1,-3.6,.,3%,-3,3,
Cc1ccc(NC(=O)C2CCC(=O)N2C(=O)OCc2ccccc2)cc1 (centres undefined),1.3,.,.,.,4,
COc1ccccc1-c1ccc(SCC(=O)NCCc2ccccc2)nn1,2.1,.,3%,7,9,
O=C(Nc1ccc(N2CCN(C(=O)c3ccccc3)CC2)c(Cl)c1)c1ncn[nH]1,2.5,.,-5%,.,0,
O=C(NCC1CCCO1)c1nc2c(nnn2Cc2ccccc2Cl)c(=O)[nH]1 (centres undefined),1.2,0,-2%,-4,0,
N#C/C(=N\Nc1cccc(F)c1)C(=N)N1CCCCCC1,.,.,1%,-4,2,
COc1ccc(Cl)cc1NC(=O)CN(C)C(=O)COc1ccccc1F,-3.0,.,-4%,-5,2,
Cc1cccc(-n2nnc(C(=O)NCc3ccccn3)c2N)c1,1.3,-11,-8%,11,-9,
COCC(=O)Nc1ccc(OCc2ccccc2)cc1,-1.7,-20,?,-13,92,
O=C(CSc1ccc2nnc(-c3cccc(F)c3)n2n1)N1CCCc2ccccc21,-0.7,-12,5%,-16,5,
Cc1ccc2nc(SCC(=O)Nc3nnc(SCC(N)=O)s3)[nH]c2c1,-1.0,-34,-1%,2,8,
